Compound activity from PubChem BioAssay.
GALR2 agonist: agonists of human galanin receptor 2 (GALR2); GALR2-expressing cells, agonist activation read-out; actives 0.48% (n = 140,000); activation, %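 (tested at 5 µM)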;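 active = above mean plus 3 SD of all compounds, about 5% in these data, not always enough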;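 note: 0% = vehicle buffer wells and 100% = reference agonist at full effect; tested in CHO reporter cells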
INS promoter inh: TRM-6 insulin promoter activity inhibition; actives 0.9% (n = 130,000); TRM-6 cells (human fetal islet line), insulin promoter-eGFP reporter, imaging; reporter expression induced with tamoxifen; inhibition, % at 2 µM;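 active = inhibition above the mean plus 3 SD, with well images judged a real hit on visual review, cut at about 60% in these data, passing the limit was not always enough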
PKD1 kinase inh: PKD1 (human) kinase inhibition | Q15139 | PKD1 kinase fluorescence polarization assay | inhibition, %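 (about 10 µM by stock and volumes)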 | actives 0.056% (n = 200,000);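 active = inhibition of 50% or more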;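 note: controls were vehicle for no effect and a reference inhibitor for full effect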
Target sequence (Q15139 whole entry, looked up): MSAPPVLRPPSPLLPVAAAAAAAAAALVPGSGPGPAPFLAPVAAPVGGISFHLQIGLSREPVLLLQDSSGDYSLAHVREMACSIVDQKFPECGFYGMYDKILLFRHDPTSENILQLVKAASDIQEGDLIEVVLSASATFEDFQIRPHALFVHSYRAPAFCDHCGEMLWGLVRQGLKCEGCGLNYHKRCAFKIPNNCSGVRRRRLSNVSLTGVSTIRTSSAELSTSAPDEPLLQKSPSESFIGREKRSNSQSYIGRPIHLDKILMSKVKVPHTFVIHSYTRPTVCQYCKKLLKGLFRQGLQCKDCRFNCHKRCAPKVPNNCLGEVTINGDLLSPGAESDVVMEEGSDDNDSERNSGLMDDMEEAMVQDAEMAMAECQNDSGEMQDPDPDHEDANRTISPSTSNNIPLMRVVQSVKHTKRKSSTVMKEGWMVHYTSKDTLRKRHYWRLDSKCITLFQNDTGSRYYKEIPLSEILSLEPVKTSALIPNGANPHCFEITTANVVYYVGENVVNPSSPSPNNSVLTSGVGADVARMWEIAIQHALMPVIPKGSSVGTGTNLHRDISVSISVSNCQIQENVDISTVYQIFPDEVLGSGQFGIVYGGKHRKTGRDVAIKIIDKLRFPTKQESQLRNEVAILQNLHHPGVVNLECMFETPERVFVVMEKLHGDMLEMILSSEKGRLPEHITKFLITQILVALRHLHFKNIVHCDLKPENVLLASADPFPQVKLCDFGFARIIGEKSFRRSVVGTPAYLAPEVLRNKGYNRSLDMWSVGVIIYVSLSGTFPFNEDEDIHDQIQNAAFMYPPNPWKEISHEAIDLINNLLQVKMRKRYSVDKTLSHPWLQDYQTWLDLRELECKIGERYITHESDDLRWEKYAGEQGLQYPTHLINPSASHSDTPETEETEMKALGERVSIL
HSV augment: HSV replication enhancement. HSV replication augmentation in cells, fold increase. maximum fold increase. actives 0.005% (n = 220,000). AID 1956;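 active = peak rise of 1.5-fold or more in the series; tested in PC3 cells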;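 note: first round at 10 µM; read as green reporter fluorescence; hits show the peak of a series up to 25 µM; 1 = signal of infected wells without compound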
RGS16-Gao HTS: regulators of human RGS16-Galphao interaction. O15492+P09471. bead-based flow cytometry RGS16-Galphao binding, fluorescence; actives lie on both sides. binding response (% of control), % at 10 µM. actives 0.38% (n = 220,000);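 active = below 25% or above 175%, edge rows of some plates excepted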;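 note: Galphao activated by GDP with aluminum fluoride before binding; 100% = wells without compound and 0% = beads without RGS; some results beyond the cut were filed as inactive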
INS promoter inh cell count: also measured in INS promoter inh; calls as there; normalized cell count, %; measured here: cell count, toxicity; reference of the scale not given here;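 cells exposed to compound for 48 h; stained nuclei by imaging scaled within each plate; lower means fewer cells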
HSV augment primary fold: recorded beside HSV augment, whose call it bears; fold increase; compound at 10 µM; measured here: primary screen fold increase 10 uM; tested in PC3 cells;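 GFP signal in the first replicate; 1 = infected wells without compound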
* marks the source's active call; other numbers are inactive results; i = inactive; . = no result given.

SMILES	GALR2 agonist	INS promoter inh	INS promoter inh cell count	PKD1 kinase inh	HSV augment	HSV augment primary fold	RGS16-Gao HTS
CCCc1ccc(C(=O)Cn2nc(C(=O)O)c3ccccc3c2=O)cc1	.	5.0	151.6	0.8	i	0.94	105.0
CCOc1ccc(/C=N/NC(=O)C(C)N(c2ccc(OC)cc2)S(C)(=O)=O)cc1 (centres undefined)	-2.5	.	.	-2.9	i	0.85	104.5
O=C(CSc1nnc(-c2ccc(O)cc2)n1Cc1ccccc1)NNC(=O)c1ccc(Br)cc1	-1.0	37.0	87.4	9.9	i	0.95	87.1
COc1ccc(CNC(=O)OCCN2CCN(Cc3ccccc3)CCC2=O)cc1	-1.9	-10.0	132.7	-8.8	i	0.99	100.7
CCn1c(NC(=O)c2ccccc2)c(-c2cccs2)c(=O)c2ccccc21	-0.8	31.2	92.7	-2.9	i	0.9	98.9
O=c1c2ccccc2nc(-c2ccccc2)n1/N=C/c1ccc([N+](=O)[O-])cc1	-1.8	.	.	0.9	i	0.99	96.0
COc1ccc(N2C(=O)C3CCCN3C2c2ccc(C)o2)cc1 (centres undefined)	.	.	.	-7.3	i	1.09	95.5
CC1CN(c2nc(-c3ccccc3)nnc2-c2ccccc2)CC(C)O1 (centres undefined)	-0.3	-29.0	67.6	-5.8	i	1.08	104.8
CCOc1ccc(C(=O)Nc2ccccc2C(=O)O)cc1	.	.	.	1.8	i	1.02	101.4
O=C(Cn1cncn1)N1CCN(c2ccc(F)cc2)CC1	.	.	.	-1.5	i	1.03	93.4

Among those listed so far, these contain a COOH group:
SMILES	GALR2 agonist	INS promoter inh	INS promoter inh cell count	PKD1 kinase inh	HSV augment	HSV augment primary fold	RGS16-Gao HTS
CCCc1ccc(C(=O)Cn2nc(C(=O)O)c3ccccc3c2=O)cc1	.	5.0	151.6	0.8	i	0.94	105.0
CCOc1ccc(C(=O)Nc2ccccc2C(=O)O)cc1	.	.	.	1.8	i	1.02	101.4

(listing goes on)
SMILES	GALR2 agonist	INS promoter inh	INS promoter inh cell count	PKD1 kinase inh	HSV augment	HSV augment primary fold	RGS16-Gao HTS
O=C(CCN1CCCCC1)c1ccc2c(c1)OCCO2	-3.4	-14.3	103.7	1.1	i	1.01	98.8
COC(=O)c1ccc(CSc2ccc3nnc(-c4ccccn4)n3n2)o1	-1.9	.	.	-4.0	i	0.9	101.9
COCCNC(=O)CS(=O)Cc1nc(-c2ccccc2C)oc1C (centres undefined)	-0.8	.	.	-5.8	i	0.92	106.8
NC(=O)N1OCC2COc3ccc4ccccc4c3C21 (centres undefined)	0.0	-9.4	98.1	0.4	i	0.93	98.9
NC(=S)N/N=C1\CC(c2ccc3c(c2)OCCCO3)Oc2ccc(F)cc21 (centres undefined)	.	.	.	.	i	0.91	90.6
CN(C)CCNc1nc2sc3c(c2c(=O)n1-c1ccccc1)CCCCC3	.	.	.	.	i	0.87	98.9
Cc1c(Br)c([N+](=O)[O-])nn1C(C)C(=O)Nc1c(C)n(C)n(-c2ccccc2)c1=O (centres undefined)	0.1	-37.5	121.1	-4.1	i	1.07	97.5
O=C(OCCNC(=O)c1cc2ccccc2oc1=O)c1cccnc1	-1.6	38.5	82.2	21.9	i	0.82	102.4
CCCOc1ccc(N2C(=O)CC(N3CCN(S(=O)(=O)c4ccccc4)CC3)C2=O)cc1 (centres undefined)	-3.2	28.1	137.9	-3.0	i	0.93	102.8
Cn1c(=O)c2c(ncn2CC(COCc2ccccc2)OCc2ccccc2)n(C)c1=O (centres undefined)	.	.	.	.	i	0.94	98.2
O=C(Nc1nnc(-c2ccc(Cl)cc2)o1)c1ccccc1Br	-2.6	.	.	0.9	i	0.78	104.0
O=C(Cc1cccs1)NCc1cccnc1	-2.8	18.9	160.5	-12.1	i	1.08	95.1
CCOC(=O)c1cc(-c2cc(OC)c(OC)c(OC)c2)nc2c1c(=O)[nH]c(=O)n2Cc1ccccc1	.	.	.	-5.0	i	0.82	99.3
COCCn1c(C)cc(C(=O)CSc2nc3ccccc3s2)c1C	-0.8	0.0	109.3	-0.6	i	1.02	99.9
O=C(NC1CC2CCC(C1)N2Cc1nnnn1Cc1ccco1)NC12CC3CC(CC(C3)C1)C2 (centres undefined)	-1.0	.	.	-9.9	i	0.98	99.2
NNC(=O)COc1ncn(-c2ccccc2)n1	-1.7	.	.	-5.8	i	1.01	99.9
Fc1ccc2[nH]c3c(N4CCSCC4)ncnc3c2c1	0.2	.	.	0.1	i	0.81	106.2
COc1ccc(NC(=O)COC(=O)[C@@H]2CCCN2C(=O)c2cccs2)c(OC)c1	-0.2	-8.1	175.5	0.7	i	0.67	109.4
O=S(=O)(NCCSc1nc2ccccc2o1)c1ccccc1	-1.0	.	.	6.5	i	1.04	96.8
O=C(Cn1nnc2ccccc21)Nc1ccccc1[N+](=O)[O-]	.	-14.3	110.4	-1.9	i	1.06	98.7
O=C(CN1CCCC1)N1c2ccccc2Sc2ccc(C(F)(F)F)cc21	-0.3	.	.	-4.1	i	1.02	107.0
O=C(NNC(=O)C1CC2CCC1C2)c1sc2ccccc2c1Cl (centres undefined)	-1.3	-38.8	108.7	-4.0	i	1.19	103.1
CC/C(=N\NC(=O)C1CC1)c1cccc(Cl)c1	.	.	.	-6.4	i	1.05	100.8
O=C(c1cnccn1)N1CCc2c([nH]c3ccccc23)C1c1cccc(Cl)c1 (centres undefined)	.	.	.	-2.8	i	0.95	105.3
COC(=O)C1=C(C)Nc2nc(SCc3ccccc3)[nH]c(=O)c2C1c1cccs1 (centres undefined)	1.2	12.2	118.2	0.4	.	.	102.5
Cc1ccccc1-n1nc(CSc2nc3ccccc3[nH]2)c(-c2ccccc2)c1N	-1.4	.	.	0.3	i	1.07	104.8
Cn1c(CNc2ccc(Cl)cc2)nnc1SCCN1CCCCC1	-0.3	4.8	97.0	-7.4	i	1.17	106.8
Cc1ccc(N(C(C)C(=O)Nc2ccccc2C(=O)N2CCOCC2)S(C)(=O)=O)cc1C (centres undefined)	-1.1	-19.1	81.5	7.1	i	0.91	87.9
COc1ccc2cc(CN(Cc3cccnc3)Cc3nnnn3Cc3ccccc3)c(=O)[nH]c2c1	1.9	-40.0	113.8	7.3	i	1.03	97.9
OCc1cnc(SCc2ccccc2)n1Cc1ccccc1	.	.	.	4.2	i	0.93	104.6
CC(=O)Nc1cccc(Oc2ccc3c(c2)C(=O)N(CCC(=O)O)C3=O)c1	-1.8	-14.3	95.1	0.3	i	0.93	88.6
Cc1cccc(NC(=O)N2CCC(c3nc4ccccc4o3)CC2)c1	-1.1	33.3	102.9	-2.6	i	1.02	101.3
CC(C)(C)NS(=O)(=O)CC12CCC(CC1=O)C2(C)C (centres undefined)	-1.5	-40.0	110.5	-8.2	i	0.65	101.5
Cc1ccc(SCCC(=O)N/N=C/c2ccccc2O)cc1	-0.5	.	.	-4.9	i	0.76	105.7
COc1ccc(NC(=O)Cc2c(F)cccc2Cl)c(OC)c1	-0.9	28.9	53.8	-7.9	i	0.98	65.1
CCOc1ccc(N(CC(N)=O)S(=O)(=O)c2ccc(F)cc2)cc1	-1.8	-169.2	112.9	-2.0	i	0.95	114.0
CCC(=O)N=C1SC2CS(=O)(=O)CC2N1c1cccc(OC)c1 (centres undefined)	-3.3	22.2	148.6	7.1	i	0.95	147.7
CCCCOCC1CC(CC#CCN2CCCCC2)C(=O)O1 (centres undefined)	.	.	.	-4.5	i	1.01	107.6
CCOC(=O)c1c(NC(=O)c2ccoc2C)sc(C(=O)N(C)C)c1C	-0.6	60.0	56.0	2.1	i	0.853	93.7
CN(C)/C=N/C(=S)Nc1ccc(F)cc1	-1.1	21.4	121.3	-0.2	i	0.92	101.3
CC(C)(C)C(=O)Oc1cc(N)n(S(=O)(=O)c2ccccc2)n1	-1.8	18.5	102.2	8.5	.	.	106.0
Cc1cc(N2CCCC2)nc2ccc(NC(=S)NCCCOC(C)C)cc12	.	28.6	115.4	-5.3	i	0.83	98.9
COc1ccc(CCNC(=O)c2nnn(CC(=O)Nc3ccccc3C)c2N)cc1OC	0.0	0.0	86.3	-0.9	i	0.97	101.2
Cc1cc(C)n(CC(C)NCc2c(C(=O)N3CCOCC3)nc3c(C)cccn23)n1 (centres undefined)	.	.	.	.	i	0.95	93.0
CN(C)c1ccc(/C=N/NC(=O)COc2ccccc2)cc1	.	.	.	1.8	i	0.9	98.7
CCC(=O)Nc1nc(C)c(C(=O)NC2CCCCC2)s1	-2.8	-127.0	103.7	-1.6	i	0.88	104.2
CCOC(=O)N1CCC(NC(=O)CSc2cc(=O)n(C)c3ccccc23)CC1	-3.7	.	.	-7.4	i	0.88	241.3
O=C1C2C3C=CC(C3)C2C(=O)N1CCc1ccccc1 (centres undefined)	-2.3	0.0	137.1	-14.8	i	0.94	92.1
CC(=O)Nc1ccc(OS(=O)(=O)c2ccc(C)cc2C)cc1	.	.	.	-3.4	i	0.98	101.2
CC1(c2ccc(Cl)cc2)NC(=O)N(CC(=O)NC(=O)NCc2ccco2)C1=O (centres undefined)	-1.7	0.0	75.2	-0.6	i	0.89	96.6

Filtered by structure, those above containing an aryl methoxy group.
SMILES	GALR2 agonist	INS promoter inh	INS promoter inh cell count	PKD1 kinase inh	HSV augment	HSV augment primary fold	RGS16-Gao HTS
CCOc1ccc(/C=N/NC(=O)C(C)N(c2ccc(OC)cc2)S(C)(=O)=O)cc1 (centres undefined)	-2.5	.	.	-2.9	i	0.85	104.5
COc1ccc(CNC(=O)OCCN2CCN(Cc3ccccc3)CCC2=O)cc1	-1.9	-10.0	132.7	-8.8	i	0.99	100.7
COc1ccc(N2C(=O)C3CCCN3C2c2ccc(C)o2)cc1 (centres undefined)	.	.	.	-7.3	i	1.09	95.5
CCOC(=O)c1cc(-c2cc(OC)c(OC)c(OC)c2)nc2c1c(=O)[nH]c(=O)n2Cc1ccccc1	.	.	.	-5.0	i	0.82	99.3
COc1ccc(NC(=O)COC(=O)[C@@H]2CCCN2C(=O)c2cccs2)c(OC)c1	-0.2	-8.1	175.5	0.7	i	0.67	109.4
COc1ccc2cc(CN(Cc3cccnc3)Cc3nnnn3Cc3ccccc3)c(=O)[nH]c2c1	1.9	-40.0	113.8	7.3	i	1.03	97.9
COc1ccc(NC(=O)Cc2c(F)cccc2Cl)c(OC)c1	-0.9	28.9	53.8	-7.9	i	0.98	65.1
CCC(=O)N=C1SC2CS(=O)(=O)CC2N1c1cccc(OC)c1 (centres undefined)	-3.3	22.2	148.6	7.1	i	0.95	147.7
COc1ccc(CCNC(=O)c2nnn(CC(=O)Nc3ccccc3C)c2N)cc1OC	0.0	0.0	86.3	-0.9	i	0.97	101.2
